Compound activity from PubChem.
gsp antag – gsp mutant antagonism | gsp-mutant cells, cAMP HTRF, 30 min; control for the full effect not named in the record | Potency, µM (highest dose often 76.9 µM), without a hit: at the highest dose activity change, negative = inhibition, most hits filed as inhibitors | 340,000 compounds, 0.4% hits; active = falling curve of any shape with a large fitted effect; inconclusive = falling curve, mostly with a smaller effect; inactive = flat or rising curve; cell line not stated here;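 further: intracellular cAMP measured with PDE inhibitor Ro 20-1724 present during compound exposure; potency means the concentration at half of the fitted maximal effect; on the % scale 0 is the no-effect control and ±100 the full control effect; nearly all actives have a fitted effect of over 65% in size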
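G418-selected cells were plated in DMEM/10% FBS for 16-24 h at 37C, then treated with compounds plus the PDE inhibitor […] (300 uM solution added) for 30 min at 37C. Intracellular cAMP was measured by HTRF after 30 min lysis at room temperature.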
TRPML1 blocker – human mucolipin-1 channel inhibition; Q9GZU1; TRPML1-inducible cells, Ca2+ dye fluorescence, FDSS; hits give low values; inhibition of EC80 agonist-evoked calcium signal; activity change, negative = inhibition, % (no concentration beside the values); 390,000 compounds, 0.02% hits; AID 624415; in the data active means activity change below about -50%; inconclusive means about -30% to -50%; inactive means above about -30%;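 further: stimulus is agonist 54-4 at its EC80 concentration; on the % scale 0 is the no-effect control and ±100 the full control effect; compound concentration not given in the record; the text of the record puts the active cut at -80%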
Target sequence (Q9GZU1 whole entry, looked up): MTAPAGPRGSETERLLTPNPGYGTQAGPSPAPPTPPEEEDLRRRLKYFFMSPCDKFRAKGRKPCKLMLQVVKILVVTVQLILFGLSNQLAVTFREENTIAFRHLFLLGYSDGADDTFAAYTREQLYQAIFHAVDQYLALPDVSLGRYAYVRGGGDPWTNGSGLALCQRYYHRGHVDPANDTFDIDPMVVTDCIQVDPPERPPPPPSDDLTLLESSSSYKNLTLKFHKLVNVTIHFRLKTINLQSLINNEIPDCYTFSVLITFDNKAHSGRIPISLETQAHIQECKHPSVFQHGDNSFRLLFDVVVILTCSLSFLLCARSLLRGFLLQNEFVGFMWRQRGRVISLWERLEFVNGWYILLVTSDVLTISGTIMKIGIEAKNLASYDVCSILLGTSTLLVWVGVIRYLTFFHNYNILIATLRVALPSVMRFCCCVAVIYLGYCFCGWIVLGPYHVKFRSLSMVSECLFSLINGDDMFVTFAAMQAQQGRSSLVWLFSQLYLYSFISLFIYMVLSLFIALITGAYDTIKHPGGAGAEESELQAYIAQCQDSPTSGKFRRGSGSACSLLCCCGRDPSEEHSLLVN
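Tet-induced TRPML1-DL cells loaded with Ca8 no-wash calcium dye were read kinetically on FDSS. Compound addition was followed by EC80 agonist 54-4 (4 uM final); inhibition was read over 110 s.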
Sfp PPTase inh – blocks B. subtilis Sfp PPTase activity; Q9F4F7; Biochemical Sfp PPTase activity, qHTS; Potency, µM, for inactives: max response, negative = inhibition, hits mostly inhibitors; 310,000 compounds, 3.5% hits; AID 1490; active means well fitted inhibition curve with a large enough effect; inconclusive means small, poorly fitted or top-dose-only effect, or another doubt; inactive means no such curve, though single readings can be large or run the other way;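 further: the enzyme is Sfp with the accession as filed and its product quenches rhodamine fluorescence; potency means the concentration at half of the fitted maximal effect; 0% = enzyme reaction without inhibitor and -100% = no enzyme wells; top concentration of the series not given in the record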
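Sfp 15 nM + cpd, 15 min RT; start w/ rhodamine-CoA 5 uM, BHQ-2-YbbR 12.5 uM (final); 50 mM Hepes pH 7.6, 10 mM MgCl2, 0.01% NP-40, 0.01% BSA; read 525/598 nm at 0 and 30 min.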
ClpP mod – qHTS Assay for Activators of ClpP; 340,000 compounds, 1.9% hits; ATP-dependent Clp protease proteolytic subunit (Bacillus subtilis (strain 168)), P80244; purified B. subtilis ClpP, FRET peptide cleavage, 20 min; Potency, µM (series often up to 57.5 µM), without a hit: at the top dose activity change, negative = active; AID 651965, 2013; active = well fitted falling curve with a large enough effect; inconclusive = small, poorly fitted or top-dose-only effect; inactive = no such curve, though single readings can be large or run the other way; further: potency means the concentration at half of the fitted maximal effect; the source files actives as falling curves though it sought activators and does not explain the sign; nearly all actives have a fitted effect of over 65% in size; many hits overshoot -100%
Target sequence (P80244 whole entry, looked up): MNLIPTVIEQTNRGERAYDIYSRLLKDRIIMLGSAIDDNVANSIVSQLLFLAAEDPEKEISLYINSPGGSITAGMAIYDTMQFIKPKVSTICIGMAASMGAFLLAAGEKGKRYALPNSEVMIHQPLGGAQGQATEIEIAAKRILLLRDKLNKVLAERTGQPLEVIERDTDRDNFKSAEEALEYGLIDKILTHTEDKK
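FRET quenching reversal measured ClpP activation: 10 microg/mL B. subtilis ClpP at pH 8 with the FRET-FV decapeptide, read at 430 nm after 320 nm excitation. The 20-min minus 0-min signal was scaled between DMSO/no-enzyme wells and ADEP (5.8 microM final).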
Menin MLL FP FL – menin-MLL binding inhibition, fluorescein peptide; Fluorescence polarization, fluorescein-MLL peptide displacement from menin; FP activity change, % at 61.4 µM; 290,000 tested, under 10 active; AID 1766; inconclusive = falling polarisation curve, or a change in total fluorescence; inactive = total fluorescence flat and polarisation flat or rising; no compound was filed as active; the % refers to the polarisation; negative = inhibition;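 further: % of control where 0% means no effect; inhibitors lower the polarisation; unlabelled MLL peptide was the positive control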
TRPV1 PAM – human TRPV1 potentiation; potentiation, % at 8.33 µM; TRPV1-expressing cells, Fluo-8 calcium influx, capsaicin EC20 potentiation; host cell line not named in the record; control for the full effect not named in the record; 320,000 compounds, 0.02% hits; Q8NER1; active means potentiation above 80%; inconclusive means 30% to 80%; inactive means below 30%; further: 0% is about no effect
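Fluo-8 calcium influx in TRPV1-expressing cells, kinetic read (ex 480/em 520 nm). Compound added and read 3 min for agonist activity, followed by capsaicin at EC20 final and 2 min further read for enhancement.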
gsp ag – activates gsp, the McCune-Albright syndrome mutation. gsp mutant cells, cAMP HTRF, 30 min; control for the full effect not named in the record. AID 624287. 340,000 compounds, 0.13% hits. Potency, µM (doses to about 76.9 µM), for the others: top-dose activation (cAMP increase), actives largely listed as activators; active = well fitted activation curve with a large enough effect; inconclusive = small, poorly fitted or top-dose-only effect, or another doubt; inactive = no such curve, though single readings can be large or run the other way; cell line not stated here;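 further: phosphodiesterase inhibitor Ro 20-1724 added with compounds to block cAMP breakdown; potency means the concentration at half of the fitted maximal effect; nearly all actives have a fitted effect of over 60% in size; about a fifth of the inactives were tested at one dose only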
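Cells in DMEM/10% FBS with G418 were pretreated with compounds in DMSO plus […] (300 uM stock) for 30 min at 37C. cAMP was measured by HTRF (cAMP-d2 plus anti-cAMP antibody-K) after 30 min at room temperature.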
Active calls of the source: *; u = inconclusive; x = not tested or not shown; [ ] = another dose, or the depositor's remark. Compounds were not picked by outcome; about 4.9% have a hit in one of these screens.

The line under a structure holds: TRPV1 PAM, Menin MLL FP FL, TRPML1 blocker, gsp ag, gsp antag, Sfp PPTase inh, ClpP mod
O=C(CSc1ncn[nH]1)N1c2ccccc2Sc2ccccc21
  -5.2, -1.8, -1.8, -10.2%[15.4 µM], -6.8%, 16.7%, x
CCCS(=O)(=O)N1CCN(CCN2C(=O)c3cccc4cccc(c34)C2=O)CC1
  8.9, 0.4, -3.7, 8.0%[15.4 µM], -12.5%, 8.2%, x
Cc1ccc(CN2CCN(/N=C/c3cc(Br)cc(Br)c3O)CC2)c(C)c1
  4.2, 4.5, 25.3, 13.3%, -9.0%, 0.4%, 1.0%
CN(C)S(=O)(=O)c1ccc(C(=O)Nc2cccc(C(=O)N3CCOCC3)c2)cc1
  2.4, -1.8, 2.8, -11.8%, -1.9%, 2.2%, 0.8%
COc1cc(/C=N/NC(=O)c2ccc(N)cc2)ccc1OC(=O)c1cccc(C)c1
  1.0, 0.8, 3.4, -13.7%[15.4 µM], -4.9%, -2.9%, -10.8%
O=C(NCc1ccc(F)cc1)c1cccc(S(=O)(=O)N2CCCC2)c1
  2.3, 3.0, 34.5, 0.2%, 0.8%, -11.6%, -6.9%
CCC(=O)NC(=S)Nc1ccc(NC(=O)CC)cc1
  -2.1, 3.8, -17.1, 7.4%, -5.3%, 2.4%, -1.9%
O=CC1=C(N2CCOCC2)/C(=C/c2ccc(Cl)cc2)CC1
  -2.3, 8.9, 17.0, 8.2%, 7.4%, -12.6%, 3.2%
N=C1C(c2ccccc2)=C(O)CN1c1ccccc1N1CCOCC1
  -6.4, -1.8, 8.3, -25.1%, 1.2%, 14.6%, 0.6%
O=C(CCNS(=O)(=O)c1ccccc1)OCc1nnc(-c2ccccc2)o1
  -5.9, x, 78.4, -72.8%[inhibitor], -1.4%, x, -5.1%

Going on with the list.
The line under a structure holds: TRPV1 PAM, Menin MLL FP FL, TRPML1 blocker, gsp ag, gsp antag, Sfp PPTase inh, ClpP mod
CCCS(=O)(=O)c1c(S(=O)(=O)CCC)c2c(N)cccn2c1C(=O)c1ccc(Br)cc1
  15.6, 6.5, 11.8, -2.2%, u, -24.0%, 1.2%
O=C(Nc1ccc(S(=O)(=O)N2CCCC2)cc1)C1CCCCC1
  -33.1, 1.6, -1.6, -19.7%, 9.2%, 4.4%, x
Cn1c(N2CCCCC2)nc2c1c(=O)n(Cc1cccc(Br)c1)c(=O)n2C
  -9.1, 3.2, 25.7, 4.6%, 11.2%, 11.0%, 0.9%
COc1ccc(C(=O)N2CCCC2)cc1
  26.4, 1.2, -2.4, 1.2%, 7.4%, -0.2%, -1.8%
O=C(CNS(=O)(=O)c1cccs1)NCc1ccccc1
  1.6, -1.5, 10.2, 28.5%, 8.5%, 21.5%, x
O=C(/C=C/c1ccco1)OCc1nnc(-c2ccccc2)o1
  12.7, 6.1, -13.3, -12.6%, 9.2%, -16.2%, -1.3%
Cc1ccc(OC(=O)c2ccccc2C(=O)OCC(F)(F)C(F)F)cc1
  1.9, 3.9, 6.6, 15.1%, -0.8%, 19.7%, 0.3%
Cn1c(=O)cc(SCC(=O)NCCC2=CCCCC2)c2ccccc21
  -13.6, 7.2, -4.4, -9.0%, 5.5%, 4.2%, -10.9%
O=C(Nc1ccccc1Cl)NC1(C(=O)N2CCCC2)CCCCC1
  -6.9, -2.4, 8.4, 23.8%, 7.0%, 14.9%, -2.6%
COc1ccc(S(=O)(=O)N2CCN(c3ccccc3)CC2)cc1
  -7.8, -0.3, -18.2, -2.0%[15.4 µM], -6.6%, 14.8%, x

The list continues.
The line under a structure holds: TRPV1 PAM, Menin MLL FP FL, TRPML1 blocker, gsp ag, gsp antag, Sfp PPTase inh, ClpP mod
CCCCn1cnc2c(=S)nc(N)[nH]c21
  -9.7, 1.9, -9.1, u, 3.1%, 14.1µM*, x
CC(C)[C@H](NC(=O)C1CCN(S(=O)(=O)c2ccccc2)CC1)C(=O)NCc1ccccc1
  u, x, 0.4, u, 10.1%, 14.0%, -2.6%
CC(=O)Nc1cccc(Oc2cc(C#N)c(C#N)cc2N2CCCCCC2)c1
  -11.4, 3.4, -10.5, u, u, -10.7%, u
c1cnc2ccc3ncccc3c2c1
  -4.6, 3.8, x, 24.9%, 1.3%, 10.5%, -4.9%
O=C(COC(=O)C1CC(=O)N(Cc2ccccc2)C1)c1ccc(F)cc1 (stereo not drawn)
  -11.6, -0.7, 8.5, 15.3%[15.4 µM], -33.6%, 20.4%, x
CN(C(=O)c1cccc(NC(=O)Cc2cccc(NC(=O)C3CCCN(C(=O)CCc4ccccc4)C3)c2)c1)C1CCC1 (stereo not drawn)
  x, x, -8.6, x, u, x, -1.9%
COc1ccc(S(=O)(=O)Nc2nc3n(n2)C(c2ccc(Cl)cc2)CC(=O)N3)cc1 (stereo not drawn)
  23.1, -1.4, 11.1, 8.6%, -3.9%, 10.7%, -1.7%
COc1ccc(-c2c(-c3ccc(O)cc3O)n[nH]c2C(F)(F)F)cc1
  -1.5, 0.9, 49.3, -1.2%, -4.0%, 3.9%, -5.5%
O=C(CN1CCOCC1)N/N=C/c1ccc(-c2cccc(Cl)c2Cl)o1
  x, 1.0, -23.7, 14.5%[15.4 µM], -9.9%, -6.6%, x
COc1ccc(CN2CCN(C(=O)c3ccc(F)cc3)CC2)c(OC)c1
  -2.3, -7.0, -9.1, -17.9%, -4.1%, -19.0%, 0.0%

In the list so far, these have fluorine.
The line under a structure holds: TRPV1 PAM, Menin MLL FP FL, TRPML1 blocker, gsp ag, gsp antag, Sfp PPTase inh, ClpP mod
O=C(NCc1ccc(F)cc1)c1cccc(S(=O)(=O)N2CCCC2)c1
  2.3, 3.0, 34.5, 0.2%, 0.8%, -11.6%, -6.9%
Cc1ccc(OC(=O)c2ccccc2C(=O)OCC(F)(F)C(F)F)cc1
  1.9, 3.9, 6.6, 15.1%, -0.8%, 19.7%, 0.3%
O=C(COC(=O)C1CC(=O)N(Cc2ccccc2)C1)c1ccc(F)cc1 (stereo not drawn)
  -11.6, -0.7, 8.5, 15.3%[15.4 µM], -33.6%, 20.4%, x
COc1ccc(-c2c(-c3ccc(O)cc3O)n[nH]c2C(F)(F)F)cc1
  -1.5, 0.9, 49.3, -1.2%, -4.0%, 3.9%, -5.5%
COc1ccc(CN2CCN(C(=O)c3ccc(F)cc3)CC2)c(OC)c1
  -2.3, -7.0, -9.1, -17.9%, -4.1%, -19.0%, 0.0%

Remaining list, next part.
The line under a structure holds: TRPV1 PAM, Menin MLL FP FL, TRPML1 blocker, gsp ag, gsp antag, Sfp PPTase inh, ClpP mod
Cc1ccc(CNC(=O)CN2C(=O)c3ccccc3S2(=O)=O)cc1
  u, 3.9, -6.7, 0.4%, 8.8%, 10.1%, x
Cc1cccc(SC2CCN(C(=O)C3CCC(=O)N(C4CC4)C3)CC2)c1 (stereo not drawn)
  0.9, 2.1, -18.4, 3.6%, 3.9%, 13.2%, -2.5%
CSC1=N/C(=C\c2c(F)cccc2Cl)C(=O)S1
  -1.3, -0.1, -10.0, -30.1%, 7.3%, -24.5%, -0.2%
COc1cccc(CN2CCN(Cc3cccc4c3OCO4)CC2CCO)c1 (stereo not drawn)
  -14.7, -4.2, 11.3, -10.6%[15.4 µM], -9.9%, 14.2%, x
COc1cc(C(=O)Nc2ccc3oc(-c4cccnc4)nc3c2)cc(OC)c1OC
  3.1, -3.0, -2.8, -0.4%[15.4 µM], -4.9%, 23.2%, -1.6%
CC(=NNC(=S)N(Cc1ccccn1)Cc1ccccn1)c1cnccn1
  x, x, -10.7, -1.0%, 29.0%, x, 1.6%
Cc1ccc(-c2nnc(-c3ccc(NC(=O)c4cccs4)cc3)o2)cc1
  3.7, -2.0, -3.5, -29.8%, 6.1%, 1.5%, u
COc1ccc(OC)c(/C=N/NC(=O)CCc2n[nH]c(=O)[nH]c2=O)c1
  2.0, 0.7, -12.3, 2.9%, 9.2%, 4.2%, 3.6%
CCc1nc(C)cn1S(=O)(=O)c1cc(C)c(OC)c(C)c1C
  -9.3, -1.3, -1.3, -2.9%, u, 4.6%, -0.5%
O=C(O)COc1ccc(/C=N/NC(=O)c2ccccc2Br)cc1
  0.8, 0.0, 30.1, -17.9%[15.4 µM], 5.7%, 25.2%, x

Continuation:
The line under a structure holds: TRPV1 PAM, Menin MLL FP FL, TRPML1 blocker, gsp ag, gsp antag, Sfp PPTase inh, ClpP mod
O=c1c2ccccc2c(-c2ccccc2)nn1-c1ccc(Cl)c(Cl)c1
  7.5, 2.3, -5.2, 0.7%, -10.8%, -13.4%, u
COc1cccc(C(=O)NC(=S)NCc2ccco2)c1
  0.4, 6.4, 1.7, 3.9%, 17.4%, -16.4%, -1.6%
COc1ccccc1NS(=O)(=O)c1cc(C(=O)N2CCCC2)ccc1C
  3.9, x, 6.3, u, -5.5%, x, 0.9%
O=C(Nc1cccc(NC(=O)c2cccs2)c1)c1ccc([N+](=O)[O-])o1
  -8.2, 3.1, 8.1, -3.6%[15.4 µM], -17.7%, 2.0%, x
CCc1ccccc1N(C)S(=O)(=O)c1cc(-c2cc(C)no2)ccc1OC
  -9.5, -1.4, 27.3, 0.5%, -24.9%, 9.4%, -1.8%
Cc1ccc(-c2ccc(=O)n(CCC(=O)N3CCN(c4ccccc4)CC3)n2)cc1
  2.7, -0.3, -5.0, -7.0%, -6.7%, 3.8%, x
O=C(O)c1cccc(CN2C(=O)SC(Nc3cccc4ccccc34)C2=O)c1 (stereo not drawn)
  12.6, 3.5, -6.9, 17.2%[15.4 µM], u, u, -0.1%
CC(C)[C@H](NC(=O)N1CCn2c1nc1ccccc12)C(=O)N[C@@H](Cc1ccccc1)C(=O)O
  1.4, 1.9, x, x, 10.3%, 9.1%, -0.7%
COc1ccc(C(=O)COC(=O)CN2C(=O)C3C4C=CC(C4)C3C2=O)cc1 (stereo not drawn)
  6.6, 2.0, 11.3, -44.7%, -4.5%, 19.6%, -0.3%
O=C(Cc1ccc(Br)cc1)Nc1ccc(S(=O)(=O)NCC2CCCO2)cc1 (stereo not drawn)
  -3.1, -3.5, -2.7, 9.1%[15.4 µM], 2.1%, 25.9%, x
